Screening data: PubChem, National Center for Advancing Translational Sciences (NCATS)
RE007 growth inh: less growth of the S. pombe RE007 Vpr strain; AID 651644; actives 0.21% (n = 360,000); Potency, µM (doses to about 92.2 µM), for the others: at the top dose activity change, negative = less growth; S. pombe RE007 Vpr strain, BacTiter-Glo ATP luminescence, 24 h; control for the full effect not named in the record; active = well fitted falling curve with a large enough effect; inconclusive = small, poorly fitted or top-dose-only effect; inactive = no such curve, though single readings can be large or run the other way;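 also: nearly all actives have a fitted effect of over 50% in size; the assay follows cell death caused by Vpr and the record does not say whether a fall means rescue or toxicity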
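Fission yeast strain RE007, carrying one chromosomally integrated HIV-1 vpr copy, was seeded at OD 0.01 in PMG+AL medium with 23 nL pinned compound. After 24 h at 30 °C and 99% humidity, viability was read by BacTiter-Glo luminescence.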
StopGo reporter: FMDV 2A StopGo reporter, luciferase signal. human cells with a luciferase reporter of 2A StopGo recoding; control for the full effect not named in the record. Potency, µM (titrated, usually from 57.9 µM), without a hit: top-dose signal change, negative = less light. actives 1.2% (n = 410,000); active = well fitted falling curve with a large enough effect; inconclusive = small, poorly fitted or top-dose-only effect; inactive = no such curve, though single readings can be large or run the other way; tested in HEK293T cells; also: nearly all actives have a fitted effect of over 45% in size; luciferase light after 4 h
* = called active by the depositor; ? = inconclusive; [ ] = remark or other dose. % is scaled to controls: 0 for no effect and ±100 for the full control effect; potency is read from the fitted curve at half-maximal effect.

The line under a structure holds: RE007 growth inh, StopGo reporter
1) COc1cccc(C(NC(C)=O)c2nc(-c3ccc(F)cc3OC)cs2)c1 (stereo not drawn)
    -6%, 0%
2) CC1(C(=O)Nc2ccc(Cl)c(Cl)c2)CCN1C(=O)Cc1ccc(-c2ccccc2)cc1 (stereo not drawn)
    15%, 0%
3) O=C(CCNC(=O)C1CCN(S(=O)(=O)c2ccc(F)cc2)CC1)NCc1ccccn1
    -6%, -7%
4) COc1ccc(-c2ccc(SCC(=O)NC3CCCC3)nn2)cc1
    -3%, 16%
5) CC(C)C[C@@H]1Cc2[nH][nH]c(=O)c2[C@H](C(C)C)O1
    5%, -7%
6) COc1ccc(OC)c2c1C(=O)CC2C (stereo not drawn)
    -8%, -15%
7) CC(=O)Nc1cccc(-c2cccc3nccn23)c1
    4%[18.4 µM], 28%
8) CCCCCNC(=O)C(c1ccc(C(F)(F)F)cc1)n1c(=O)c(-c2ccco2)nc2ccccc21 (stereo not drawn)
    -13%, -11%
9) CC(=O)NC(c1ccccc1)c1nc(-c2ccccc2)cs1 (stereo not drawn)
    10%, -6%
10) CC1(Cc2cccc(C(N)=O)c2)C(=O)Nc2c(Cl)cccc21 (stereo not drawn)
    6%, -13%
11) CC(=O)c1ccc(S(=O)(=O)NCCOc2ccccc2)cc1
    -6%, -18%
12) CCOC(=O)[C@]12Cc3ccccc3[C@H]1N(Cc1ccccc1)C(=O)c1ccccc12
    -3%, -1%
13) CSc1ccccc1OCc1cc(C(=O)NCC(C)Oc2cccnc2)no1 (stereo not drawn)
    -16%, -4%
14) COC(=O)C[C@H]1c2cc(F)cc(F)c2S(=O)(=O)N1C1CCN(Cc2ccccc2)CC1
    ?, -28%
15) COc1ccc(-c2c(Sc3ccccc3)c3cc(-c4ccc5c(c4)OCO5)ccc3n2C)cc1
    -3%, -22%
16) CCOC1=C2CN(S(=O)(=O)c3ccc(C)cc3)[C@H](c3cccs3)C[C@H]2n2c(=O)n(-c3ccccc3)c(=O)n2C1
    -8%, -17%
17) Cc1cc(C)cc(NS(=O)(=O)c2ccc(NC(=O)c3ccccc3C(=O)O)cc2)c1
    -9%, 26%
18) Cc1cccc(CNC(=O)C2CCC(=O)N(CCCc3ccccc3)C2)c1 (stereo not drawn)
    0%, -20%
19) CC(=O)Nc1cc(-c2cccc(C(=O)N(C)C)c2)cn2c(-c3cccc(C(F)(F)F)c3)cnc12
    14%, ?
20) COc1ccc(NC(=O)N(C)C[C@@H]2Oc3cc(Br)ccc3S(=O)(=O)N([C@H](C)CO)C[C@H]2C)cc1
    -6%, -1%

Next structures
The line under a structure holds: RE007 growth inh, StopGo reporter
21) COc1ccc(-c2cnc3c(c2)C(=O)N([C@H](C)CO)C[C@H](C)[C@H](CN(C)C(=O)Cc2cccnc2)O3)cc1
    15%, 0%
22) O=C(Nc1ccc2nc3n(c(=O)c2c1)CCCC3)c1cncc(Br)c1
    10%, -9%
23) CCCC[C@@H]1CCCO[C@@](C(=O)NCc2ccc(C)o2)(C(F)(F)F)C1
    -1%, -15%
24) CCOC(=O)C[C@H]1c2ccc(C(F)(F)F)cc2S(=O)(=O)N1Cc1ccccc1
    8%, 60%[activator]
25) O[C@@H]([C@H](O)[C@H](O)CBr)[C@H](O)CBr
    -4%, -27%
26) CC1(C(=O)NS(C)(=O)=O)CCN1C(=O)C/C=C/c1ccccc1 (stereo not drawn)
    10%, 0%
27) CC(C)c1ccc(NC(=O)C2(C)Cc3c(-c4cccc(C(F)(F)F)c4)ccnc3O2)cc1 (stereo not drawn)
    4%[18.4 µM], -16%
28) CC(C)(C)OC(=O)N1CCCN(C(c2cc3ccccc3o2)c2nnnn2C(C)(C)C)CC1 (stereo not drawn)
    3%, -21%
29) C[C@H]1Cn2cnc(C(=O)Nc3ccccc3)c2C(=O)N1
    -11%, -17%
30) OC(c1ccc(CN2CCCCC2)cc1)c1ncc(-c2ccccc2F)[nH]1 (stereo not drawn)
    -17%[18.4 µM], -7%
31) COC(=O)[C@]12CCCCC=C1N(CCc1ccc(OC)c(OC)c1)C(=O)[C@H](CC(=O)NCCC(C)C)C2
    34%, 12%
32) CNC(=S)N1C2CCCC1CC(NC(=O)c1ccc(C)cc1)C2 (stereo not drawn)
    -9%, 2%
33) COc1cccc(S(=O)(=O)Nc2ccc3c(c2)[C@@H]2C[C@@H](CC(=O)NCc4ccc(Cl)cc4)O[C@@H](CO)[C@@H]2O3)c1
    -7%, -24%
34) COc1cccc(CNc2nc3cc(-c4ccccc4CO)sc3c(=O)n2C)c1
    26%, -2%
35) CCCCOc1ccc(S(=O)(=O)NC(=O)C2(C)CCN2C(=O)Cc2ccccc2Cl)cc1 (stereo not drawn)
    2%, -19%
36) CCOC(=O)[C@]12Cc3cc(OC)ccc3[C@H]1N(Cc1ccccc1)C(=O)c1cc(OC)ccc12
    -8%, -15%
37) COc1ccc(C(=O)N2CCC2(C)C(=O)O)cc1F (stereo not drawn)
    3%, -4%
38) C[C@H](O)C#Cc1cnc2c(c1)C(=O)N([C@H](C)CO)C[C@@H](C)[C@@H](CN(C)Cc1ccc(-c3ccccc3)cc1)O2
    1%, -17%
39) O=C(NC1CCCCC1)C(c1ccncc1)n1c(=O)c(-c2ccccc2)nc2ccccc21 (stereo not drawn)
    13%, 2%
40) CC(OC(=O)C1CCN(S(=O)(=O)c2ccc(C(C)(C)C)cc2)CC1)C(=O)N(C)C1CCCCC1 (stereo not drawn)
    -6%, 40µM*

Overlap with the part before: 2 entries; new compounds follow.
The line under a structure holds: RE007 growth inh, StopGo reporter
39) O=C(NC1CCCCC1)C(c1ccncc1)n1c(=O)c(-c2ccccc2)nc2ccccc21 (stereo not drawn)
    13%, 2%
40) CC(OC(=O)C1CCN(S(=O)(=O)c2ccc(C(C)(C)C)cc2)CC1)C(=O)N(C)C1CCCCC1 (stereo not drawn)
    -6%, 40µM*
41) COc1ccc(C)cc1-n1nnnc1SCc1nc(N)nc(N(C)C)n1
    -16%, -3%
42) CC1(C)C[C@@H](O)CC2(C1)C[C@]1(C)CC(O)[C@H]2C(C)(C)C1 (stereo partly drawn)
    6%, -25%
43) CC(=O)Nc1cccc(NC(=O)NC2CC(=O)N(c3ccc4c(c3)OCCO4)C2)c1 (stereo not drawn)
    -10%, 0%
44) O=C(NCc1ccccn1)C1Nc2ccc(C(F)(F)F)cc2C2C=CCC12 (stereo not drawn)
    2%, -22%
45) COCCNC(=O)C1CCCN(C(=O)c2cc(C)n(C(C)(C)C)n2)CC1 (stereo not drawn)
    4%, -8%
46) CCCCCCc1nc2nc(Cl)c(Cl)nc2[nH]1
    -1%, 0%
47) CCOC(=O)[C@]12CCCC=C1N(CCC1=CCCCC1)C(=O)[C@H](CC(=O)NCC13CC4CC(CC(C4)C1)C3)C2
    7%, -20%
48) COc1c(CC=C(C)C)cc(C2CC(=O)c3c(O)cc(O)cc3O2)c(CC=C(C)C)c1O (stereo not drawn)
    3%, -22%
49) COc1ccc(C(=O)C(=O)N2CCC(c3ccccc3)CC2)cn1
    4%, 5%
50) CC1(C(=O)NS(=O)(=O)c2cccc(Cl)c2)CCN1C(=O)C1CC1 (stereo not drawn)
    6%, -13%
51) COc1cc(/C=C/C(=O)OCC(=O)N2CC(C)OC(C)C2)ccc1OCC#N (stereo not drawn)
    -3%, -13%
52) COc1ccc(C(=O)NCCNc2nc3cc(C)cc(C)c3cc2C#N)cc1
    -17%, -30%
53) CC1(C(=O)NS(=O)(=O)c2ccc(Cl)cc2)CCN1C(=O)C/C=C/c1ccccc1 (stereo not drawn)
    6%, -9%
54) COc1ccc(-c2nc3ccc(C)cn3c2Cc2ccccc2)cc1OC
    ?, -11%
55) c1cc2c(c(CC3CO3)c1CC1CO1)OCCOCCOCCOCCO2 (stereo not drawn)
    -11%, -8%
56) N#CCCN(CCCN1CCOCC1)CN1C(=O)c2ccccc2C1=O
    -2%, -11%
57) O=C(NC1CC1)c1ccc2nc([C@H]3C[C@H](O)[C@@H](CO)O3)[nH]c2c1
    -5%[18.4 µM], -12%
58) CCOc1ccc(NC(=S)NS(=O)(=O)c2cc(Br)ccc2OCC)cc1
    9%, 76%[activator]
59) COC(=O)c1cc(=O)nc(NN=C2CCCCC2)s1
    -22%, -19%
60) O=c1c(-c2cccs2)nc2ccccc2n1C(CCc1ccccc1)c1nc2ccccc2[nH]1 (stereo not drawn)
    -13%, -12%

Random excerpt: seven compounds from above, in no set order.
The line under a structure holds: RE007 growth inh, StopGo reporter
59) COC(=O)c1cc(=O)nc(NN=C2CCCCC2)s1
    -22%, -19%
45) COCCNC(=O)C1CCCN(C(=O)c2cc(C)n(C(C)(C)C)n2)CC1 (stereo not drawn)
    4%, -8%
49) COc1ccc(C(=O)C(=O)N2CCC(c3ccccc3)CC2)cn1
    4%, 5%
55) c1cc2c(c(CC3CO3)c1CC1CO1)OCCOCCOCCOCCO2 (stereo not drawn)
    -11%, -8%
47) CCOC(=O)[C@]12CCCC=C1N(CCC1=CCCCC1)C(=O)[C@H](CC(=O)NCC13CC4CC(CC(C4)C1)C3)C2
    7%, -20%
46) CCCCCCc1nc2nc(Cl)c(Cl)nc2[nH]1
    -1%, 0%
43) CC(=O)Nc1cccc(NC(=O)NC2CC(=O)N(c3ccc4c(c3)OCCO4)C2)c1 (stereo not drawn)
    -10%, 0%

Remaining list, next part:
The line under a structure holds: RE007 growth inh, StopGo reporter
61) CCc1cc(C(=O)NC2CCCc3c2cnn3-c2ccc(F)cc2F)no1 (stereo not drawn)
    48%, ?
62) COc1ccc(C2=Nc3ccccc3NC(=O)C2N(C(=O)c2ccnc3ccccc23)c2ccccc2)cc1 (stereo not drawn)
    3%, -15%
63) CN(C(=O)CSc1nc(N)cc(=O)[nH]1)C1CCCCC1
    5%, -4%
64) O=C1O[C@@H](c2ccccc2)C[C@@H](O)[C@H](O)CCCc2ccccc21
    -2%, -21%
65) COc1ccc([C@H]2CC(=O)C[C@@H](CCn3cccn3)O2)cc1
    -16%, -21%
66) C[C@H]1COc2cccc(N3CCC[C@H]3CO)c2S(=O)(=O)N1
    4%, -10%
67) CCc1nc2ccc(C(=O)N3CCN(C(=O)c4ccco4)CC3)cn2c1N(C=O)Cc1ccc(OC)cc1
    -10%, -16%
68) O=C1C(=C(c2ccccc2)N2CCOCC2)Cc2ccccc21
    -5%, 8.9µM*
69) C[C@H](NC(=O)[C@@H]1CCCN1C(=O)[C@@H]1CCCN1)c1ccccc1
    12%, -12%
70) COc1ccccc1N=NNc1ccc(S(=O)(=O)NC(C)=O)cc1
    3%, -13%
71) O=C(NCc1ccc(F)cc1)N1[C@H]2CC[C@@H]1C=C(c1ccc(F)cc1OCc1ccccc1)C2
    -9%, -20%
72) COc1ccc(C=C2OC(=O)C(C(C)=O)=C2O)cc1
    -25%, -14%
73) Cc1ccc(C=O)c([B-](F)(F)F)c1
    22%, -18%
74) Clc1cccc(CNc2ccn3nc(-c4ccc(OCCN5CCOCC5)cc4)cc3n2)c1
    -25%[18.4 µM], ?
75) O=C(Nc1ccc2nc3n(c(=O)c2c1)CCCC3)c1ccc(Cl)nc1
    10%, -26%
76) CC1Cn2c(Cc3ccccc3)nnc2S1 (stereo not drawn)
    11%, 7%
77) CCOc1ccc(CCN2C(=O)C(=O)N([C@@H](Cc3ccccc3)CN3CCC[C@H]3CN3C(=O)C(=O)NC[C@@H]3Cc3ccc(O)cc3)C[C@@H]2CC(C)C)cc1
    -3%, -2%
78) CC(C)(C)c1ccc(C(=O)N2CCC2(C)C(=O)NCc2cccc3ccccc23)cc1 (stereo not drawn)
    11%, -26%
79) CC(=O)OC[C@@H]1CN(Cc2ccccc2)C[C@H](n2cnc3c(NC4CCC4)ncnc32)O1
    -15%, -8%
80) CCc1cccc2c1Sc1ccccc1CC2N1CCNCC1 (stereo not drawn)
    16%, ?

Next records:
The line under a structure holds: RE007 growth inh, StopGo reporter
81) COCCNC(=O)C1(C)CCCN(Cc2sc(C)nc2C)C1 (stereo not drawn)
    2%[18.4 µM], -13%
82) CCN(C(=O)COC(=O)CCOc1ccc(C(C)(C)C)cc1)c1c(N)n(Cc2ccccc2)c(=O)[nH]c1=O
    8%, ?
83) COC(=O)C1=C(c2cc3ccccc3s2)C[C@@H]2CC[C@H]1N2C(=O)NCc1ccc(F)cc1
    29%, -1%
84) CCn1c(CN2CCC(C)CC2)nc2cc(S(=O)(=O)N3CCCCC3)ccc21
    0%, ?
85) CC(C)c1nc(SCC(=O)N2CCCC2)c2c(=O)n(C)c(=O)n(C)c2n1
    -5%, -3%
86) O=C(O)C1=C(C(=O)O)C2CCC1C2
    -11%, -13%
87) Cc1ccc(F)c(S(=O)(=O)NC(=O)C2(C)CCN2C(=O)c2ccc(C3CCCCC3)cc2)c1 (stereo not drawn)
    38%[18.4 µM], -23%
88) O=C(c1cc(C2CC2)nn1-c1ccccc1)N1CCN(S(=O)(=O)c2ccc(F)cc2)CC1
    0%, -18%
89) CCOC(=O)C1=CCC(c2cc3ccc(OC)cc3n2C(=O)OC(C)(C)C)NC1 (stereo not drawn)
    -9%, -5%
90) CCCCCCN1CCN(C2CN(Cc3cn(Cc4cccc(C(F)(F)F)c4)nn3)S(=O)(=O)C2)CC1 (stereo not drawn)
    -15%, -25%
91) COc1ccc(NC(=O)C(c2ccc(OC)cc2)n2c(=O)c(-c3cc4ccccc4[nH]3)nc3ccccc32)cc1 (stereo not drawn)
    1%, 25%

These rows are one share of the data; rates above refer to the full screens.
